Bioassay records deposited in PubChem BioAssay by National Center for Advancing Translational Sciences (NCATS).
Anthrax LT inh = inhibitors of anthrax lethal toxin internalization; Cells, anthrax lethal toxin internalization, FRET ratio (460/530); AID 912; Potency, µM (series often up to 40 µM), for the others: at the highest dose activity change, negative = inhibition, most hits filed as inhibitors; 0.67% of 70,000 active; active = well fitted falling ratio curve with the 530 nm signal flat; inconclusive = other ratio curves, or a change in one channel alone; inactive = flat curves in the ratio and both channels; the % refers to the ratio; note: % is set by controls: 0 for no effect and ±100 for the full control effect; nearly all actives have a fitted effect of over 50% in size; tested in ME-180 cells; beta-lactamase reporter
SmPrx2 inh = inhibitors of Schistosoma mansoni peroxiredoxin 2 | S. mansoni Prx2 activity coupled to TGR/GSH (TGR is thioredoxin glutathione reductase), NADPH fluorescence loss, qHTS; some inactives read as strong as hits | Potency, µM | 0.07% of 65,000 active; active means full or partial inhibition curve with a strong effect at the top dose; inconclusive means weaker partial or single-point curve; inactive means no accepted curve; note: series up to 57 µM; many of its hits are not listed in these tables
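Activity is read as the drop in NADPH fluorescence (365/450 nm), recorded every 30 sec for 8 min after H2O2 addition. Prx2 is coupled to TGR-driven NADPH oxidation through glutathione, in phosphate buffer pH 7.4.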
The depositor's hits bear a star; ? = inconclusive; . = no result given; & = joins results of further samples. Potency is the fitted concentration of half-maximal effect.

cpd | SMILES | Anthrax LT inh | SmPrx2 inh
1 | CCOc1ccccc1N1CC(C(=O)Nc2nccs2)CC1=O (centres undefined) | -12.1% | >57
2 | Cc1ccc(C)c(-n2c(SCC(=O)NCC3CCCO3)nnc2-c2ccoc2C)c1 (centres undefined) | -1.0% | >57
3 | FC(F)Sc1nnc(-c2cccs2)n1-c1ccccc1 | -4.2% | >57
4 | CCOc1ccc(CCNC(=O)C2CCN(c3ccc(N4CCOCC4)nn3)CC2)cc1OCC | ? | .
5 | COc1ccc(CC(=O)Nc2nccs2)cc1OC | -2.7% | >57
6 | C=CCSc1nnc(NC(=O)CSc2nc3ccccc3o2)s1 | 26.0% | >57
7 | COc1ccc(N2CCn3c2nc2c3c(=O)n(CCc3ccccc3)c(=O)n2C)c(OC)c1 | -6.7% | >57
8 | CCCCNC(=O)CS(=O)Cc1nc(-c2cccs2)oc1C (centres undefined) | 4.3% | >57
9 | CN1Cc2sc(N)c(C#N)c2CC1(C)C | ? | >57
10 | O=C(CN(CC1CCCO1)C(=O)CCC(=O)Nc1nccs1)NCc1ccc2c(c1)OCO2 (centres undefined) | 3.9% | >57
11 | Cc1nc2cnc(N3CCOCC3)nc2n(C2CC2)c1=O | -9.0% | >57
12 | O=C1C2(c3ccccc3)CN(CCCO)CC1(c1ccccc1)CN(CCCO)C2 | 0.6% | >57
13 | CCN(CC(=O)NCc1cccs1)S(=O)(=O)c1cccc(C(C)=O)c1 | 2.5% | >57
14 | CCn1c(SCc2c(F)cccc2Cl)nnc1-c1ccco1 | 1.0% | >57
15 | Cc1ccccc1OCCn1c(=O)oc2ccccc21 | -15.1% | >57
16 | CCOC(=O)C(O)(c1ccc(NC(=O)c2ccco2)c(OC)c1)C(F)(F)F (centres undefined) | ? | >57
17 | [O-][Cl+]O | 4.9% | .
18 | CN(Cc1ccccc1)Cc1nc2c(c(=O)n(C)c(=O)n2C)n1CCCc1ccccc1 | -6.7% | >57
19 | Cn1c(SCc2nc3ccccc3[nH]2)nnc1-c1ccccn1 | -1.7% | >57
20 | CN1CCN(c2ncnc3ccc(-c4cccc(C#N)c4)cc23)CC1 | -14.6% | .
21 | O=C1c2ccccc2-c2nccnc21 | -12.2% | >57
22 | CC(C)[C@@H](CC(=O)N[C@@H]1CCNC[C@H]1C(=O)N[C@H](CC(=O)N[C@@H](CCC(=O)O)CC(=O)O)Cc1c[nH]c2ccccc12)NC(=O)C[C@H](CO)NC(=O)[C@@H]1CCCC[C@H]1N | -11.5% | >57
23 | Cc1nn(-c2ccccc2)c(Cl)c1C1C(C#N)=C(N)Oc2c1c(=O)oc1ccccc21 (centres undefined) | -5.7% | >57
24 | Cc1csc(NC(=O)Nc2cccc(Cl)c2)n1 | -17.6% | >57
25 | CCC1CCCCN1C(=O)Nc1cccc(NC(=O)N2CCCCC2CC)c1 (centres undefined) | 13.4% | >57
26 | Cc1nn(CCC#N)c2c1P(=S)(N1CCCC1)OC(c1ccc(F)cc1)=N2 (centres undefined) | 1.2% | >57
27 | N#CC(C(=O)Nc1ccc(Cl)cc1)=C1Nc2ccccc2N1 | . | >57
28 | Cc1noc(C)c1C(=O)OCC(=O)c1c(N)n(CC(C)C)c(=O)n(C)c1=O | -2.0% | >57
29 | O=C(Nc1ccon1)c1ccc(S(=O)(=O)N2CCCCCC2)cc1 | -10.0% | >57
30 | c1ccn(-c2ncnc3sc4c(c23)CCCC4)c1 | -6.2% | >57
31 | Oc1ccc(-c2nnc(SCC3CCCCC3)o2)cc1 | ? | >57
32 | O=C(O)c1ccc(NS(=O)(=O)c2ccc3c(c2)OCCO3)cc1 | -5.7% | >57
33 | Cc1ccc(-n2nnc3c(=O)n(CC(=O)OCc4ccccc4)cnc32)cc1 | -1.7% | >57
34 | Cn1c(=O)c2c(nc(CN3CCN(Cc4ccccc4)CC3)n2Cc2ccc(F)cc2)n(C)c1=O | ? | >57
35 | CNCCCCCCCCSc1nc(C(C)C)ccc1C(=O)c1cccs1 | ? | >57
36 | OC(CNCC(c1ccco1)N1CCCCC1)c1ccccc1 (centres undefined) | -4.6% | >57
37 | CN1CCc2cc(O)c(O)cc2[C@H](c2ccccc2)C1 | 2.1% | >57
38 | COCC(=O)Nc1cccc(Br)c1 | . | >57
39 | CCc1ccccc1N(CC(=O)Nc1cccc(N(C)S(C)(=O)=O)c1)S(C)(=O)=O | -6.2% | >57
40 | CCc1nnc(N2CCN(c3ncnc4c3oc3ccccc34)CC2)s1 | 17.1% | >57
41 | COc1cc(OC)cc(-c2cc3nc4c(c(N5CCN(c6cnccn6)CC5)n3n2)CCCC4)c1 | -7.5% | >57
42 | CCOC(=O)c1c(N)n(CCCOC(=O)c2ccco2)c2nc3ccccc3nc12 | ? | >57
43 | CC(C(=O)Nc1ccccc1-c1ccccc1)N1CCN(C(=O)c2ccco2)CC1 (centres undefined) | -8.7% | >57
44 | Cc1cc(O)c2c(c1)C(=O)c1cc(O)cc(O)c1C2=O | ? | >57&>57
45 | CC(C)CCN1C(=O)c2ccc(C(=O)NCC3CCCO3)cc2C1=O (centres undefined) | 5.7% | >57
46 | COC(=O)C(O)(NC(=O)NC(C)=O)C(F)(F)F (centres undefined) | -17.5% | >57
47 | COc1ccc(C)cc1NC(=O)c1nnn(Cc2cccc(F)c2)c1N | -5.8% | .
48 | CCC(Oc1ccccc1)C(=O)N1CCC(C(N)=O)CC1 (centres undefined) | 6.9% | >57
49 | Cc1ccc(CSC2=Nc3ccccc3C3=NC(CC(=O)NCc4ccco4)C(=O)N23)cc1 (centres undefined) | 12.0% | >57
50 | Oc1ccc(-c2nc3ncccn3c2Nc2ccc3c(c2)OCO3)cc1 | -1.9% | >57
51 | O=S(=O)(Nc1ccc2c(c1)OCCO2)c1ccc2oc3ccccc3c2c1 | -23.7% | >57
52 | CCc1ccc(C(=O)N2CCN(c3ccc(F)cc3)CC2)s1 | -24.9% | >57
53 | COC(=O)c1ccc(C(NC(=O)OCc2ccccc2)/C(I)=C/[C@@H](C)C(=O)NCc2ccc(OC)c(O)c2)cc1 (some centres undefined) | 6.1% | .
54 | CN(C)c1ncc2nc(CCc3ccccc3)c(=O)n(C3CC3)c2n1 | ? | >57
55 | O=C(NCCN1CCCCC1)c1c(O)c2ccccc2[nH]c1=O | -3.0% | >57
56 | CCOCCCn1c(SCC(=O)Nc2ccc(C(N)=O)cc2)nc2ccccc2c1=O | 5.8% | >57
57 | COc1ccc(S(=O)(=O)N2CCC(C(N)=O)CC2)c2ccccc12 | 16.5% | >57
58 | O=C(CN1C(=O)C2C3C=CC(C3)C2C1=O)NCc1ccc2c(c1)OCO2 (centres undefined) | 7.6% | >57
59 | N#CC1=C2C=Cc3ccccc3N2CCCC1=O | 13.8% | >57
60 | CC1(C)CC(=O)C2=C(C1)NC(=O)CC2c1ccc(F)cc1 (centres undefined) | 18.3% | >57

Next part.
cpd | SMILES | Anthrax LT inh | SmPrx2 inh
61 | CN(C)c1ccc(/C=C/C(O)=C2/C(=O)N(C)C3(C)CC2c2ccccc2O3)cc1 (centres undefined) | ? | >57
62 | CCOC(=O)c1cnc2c(C#N)c(C)nn2c1-c1ccccc1 | -10.2% | .
63 | O=C(Cn1ncc2c(=O)oc3ccccc3c21)NCCCN1CCCC1=O | -8.5% | >57
64 | Cc1ccc2c(c1)[nH]c1c(N3CCN(Cc4ccccc4)CC3)ncnc12 | ? | >57
65 | O=c1c2ccccc2nc(-c2ccccc2)n1Cc1ccco1 | -9.5% | >57
66 | O=S(=O)(c1ccccc1F)N(Cc1ccco1)Cc1nnc(-c2ccccc2Br)o1 | -29.1% | .
67 | CC(C)CCN(C(=O)CNC(=O)c1ccco1)C(C(=O)NC1CCCCC1)c1ccco1 (centres undefined) | 5.1% | >57
68 | COc1ccccc1-c1nnc(SCC(=O)N2CCC(C)CC2)o1 | 7.1% | >57
69 | O=C(Cn1c(=O)n(Cc2ccco2)c(=O)c2ccccc21)Nc1cccc(Cl)c1 | 2.51µM* | >57
70 | O=C(CCn1nc(-c2ccc(Cl)cc2)ccc1=O)NCCCN1CCCCCC1 | -4.0% | >57
71 | CN(C)C(=O)CSc1nc(SCC(=O)N(C)C)n(-c2ccccc2)n1 | 8.6% | >57
72 | CC1=C(C(=O)Nc2ccccc2)C(c2ccncc2)C(C#N)=C(SCC(=O)NC2CC2)N1 (centres undefined) | -0.9% | >57
73 | Cc1ccc(C)n1CCN1CCN(C(=O)CSc2nc3ccccc3nc2N2CCOCC2)CC1 | 8.5% | >57
74 | O=C1CCC(=O)c2oc3ccccc3c2N1 | -8.6% | >57
75 | CSc1cccc(NC(=O)CN2C(=O)c3ccccc3S2(=O)=O)c1 | -18.8% | >57
76 | Cc1occc1-c1nnc(SCC(=O)N2CCN(c3ccc(F)cc3)CC2)n1C | -6.4% | >57
77 | CCOC(=O)N1CCN(C(=O)CCCN2C(=O)CSc3nc(C)cc(C)c32)CC1 | 1.4% | >57
78 | COc1ccc(OC)c(NC(=O)CSc2nnc(CNc3ccc(C)cc3C)o2)c1 | 2.8% | >57
79 | Cc1ccc(C)c(NC(=O)CSc2nnc(Cc3cccn3C)n2-c2ccc(F)cc2)c1 | -13.3% | >57
80 | Cc1ccc(-c2nc3ccccc3n3nnnc23)cc1 | -4.9% | >57
81 | CCCCN(C)C(=O)C1CCN(CCCc2ccccc2)CC1 | -3.6% | >57
82 | Cc1ccc(S(=O)(=O)NC(CC(=O)N2CCC3(CC2)OCCO3)c2ccco2)cc1 (centres undefined) | 3.3% | >57
83 | COc1ccc(Oc2ncc3nc(-c4ccc(Cl)cc4)c(=O)n(CCC#N)c3n2)cc1 | ? | >57
84 | O=C(NCc1ccccc1)NC1CCCCC1 | -8.3% | >57
85 | CCOC(=O)C1=C(CSc2nc(C)ccc2C#N)OC(N)=C(C#N)C1c1cccc(OC)c1OC (centres undefined) | -7.8% | >57
86 | CCC(OC(=O)CC1Sc2ccccc2NC1=O)C(=O)NCC1CCCO1 (centres undefined) | -9.4% | >57
87 | Cc1cc(=O)[nH]c(N2CCN(Cc3ccccc3)CC2)n1 | . | >57
88 | Cn1c(Cn2c(=O)sc3ccccc32)nnc1SCC(=O)NCC1CCCO1 (centres undefined) | 0.1% | >57
89 | O=C(CN1C(=O)c2cccc3cccc1c23)N1CCN(c2cccc(Cl)c2)CC1 | ? | >57
90 | CCOP(=O)(c1ccc(N(C)C)cc1)C(O)c1ccc(Cl)cc1 (centres undefined) | ? | >57
91 | O=C(CN1CCN(C(=O)c2ccco2)CC1)Nc1ccc(Cl)c(C(F)(F)F)c1 | 4.8% | >57
92 | COc1ccc(NC(=O)N(Cc2cc3cc(OC)ccc3[nH]c2=O)CC2CCCO2)cc1 (centres undefined) | 0.2% | >57
93 | COc1ccccc1NC(=O)CSc1nnc(Cc2cc(=O)[nH]c(=O)[nH]2)n1-c1ccccc1 | -7.0% | >57
94 | CN1[C@@H]2CC[C@H]1CC(OC(=O)c1c[nH]c3ccccc13)C2 (some centres undefined) | 2.2% | >57
95 | Cc1ccc(Cl)cc1N(CC(=O)N1CCCCCC1)S(C)(=O)=O | -7.9% | .
96 | NCCCCCc1nnc(SC/C=C/c2ccccc2)o1 | 2.2% | >57
97 | COc1cc(C2c3c(-c4cc(C)cc(C)c4O)n[nH]c3C(=O)N2CCCO)cc(OC)c1OC (centres undefined) | 8.5% | >57
98 | Cc1nn(Cc2ccccc2Cl)c(C)c1N | 7.5% | >57
99 | COc1cc2[nH]c(=S)n(CC3CCCO3)c(=O)c2cc1OC (centres undefined) | 6.1% | >57
100 | O=C(CSc1nnc(-c2ccc(S(=O)(=O)N3CCOCC3)cc2)o1)c1ccccc1F | -9.2% | >57
101 | CCCCN1CCC[C@@H]1CNC(=O)c1cc(C#N)c2ccccc2c1OC | ? | >57
102 | CCCC1CCC(C(=O)Nn2c(C)nc3ccccc3c2=O)CC1 (centres undefined) | -7.4% | >57
103 | S=C(c1ccc(N2CCOCC2)cc1)N1CCCCC1 | -13.5% | >57
104 | CCOC(=O)c1cccc(NC2c3ccccc3C(=O)N2Cc2ccco2)c1 (centres undefined) | 3.4% | >57
105 | Cc1ccc(-n2ncc3c(=O)[nH]c(SCC(=O)N4CCCC4)nc32)cc1C | 8.5% | >57
106 | COc1ccc(NC(=O)C2CCCN2S(=O)(=O)c2ccc3c(c2)CCC(=O)N3)cc1 (centres undefined) | 9.1% | >57
107 | CCOC(=O)c1cccc(NC(=O)C2CCCN(S(=O)(=O)c3cnc[nH]3)C2)c1 (centres undefined) | -3.5% | >57
108 | COc1ccccc1CNC(=O)CC(NS(=O)(=O)c1ccc(C)cc1)c1ccco1 (centres undefined) | 0.8% | >57
109 | CC(=O)NC(=O)NC1CSCC1OC(C)=O (centres undefined) | . | >57
110 | CC(C)(C)NC(=O)NC(=O)COc1ccccn1 | -12.2% | >57

Some of the compounds tested; rates above refer to the full screens.
